Source: PubChem
Yeast UUG start: yeast start codon fidelity modulation; S. cerevisiae UUG-firefly luciferase reporter, luminescence/redox ratio; activity score, % at 18.7 µM; actives 0.13% (n = 350,000); AID 602363;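 active means replicate mean at a twofold rise or more, about +100% in these data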;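 further: firefly luciferase made from a UUG start codon reports start codon fidelity; reporter light over untreated wells divided by growth signal over untreated wells; some hits fall short of that in this replicate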
HIV Env fusion: inhibitors of HIV Env-mediated cell fusion; inhibition, % at 12.3 µM; actives 1.1% (n = 360,000); HeLa-JRFL Env/CEM21 cell fusion, luciferase; AID 651610;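 active means mean replicate inhibition score of at least 50 and every replicate individually at or above 50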;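 further: 0% = plate neutral controls and 100% = maraviroc near 300 nM; one replicate is shown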
* = called active by the depositor; [ ] = dose if it differs, or a comment.

HIV Env fusion | Yeast UUG start | SMILES
-6[16.7 µM] | -24 | O=C(C[C@H]1C=C[C@@H](NC(=O)C2CC2)[C@@H](CO)O1)Nc1ccccc1
-1[16.7 µM] | 8 | Cc1ccc(S(=O)(=O)Nc2ccc3c(c2)C(=O)N([C@@H](C)CO)C[C@H](C)[C@H](CN(C)Cc2ccc(C(F)(F)F)cc2)OCCCC[C@@H](C)O3)cc1
-18[16.7 µM] | 1 | C[C@H](CO)N1C[C@H](C)[C@@H](CN(C)CC2CC2)Oc2ccc(NC(=O)C3CCCCC3)cc2CC1=O
0[16.7 µM] | 6 | CC(C)NC(=O)N(C)C[C@H]1Oc2cc(-c3ccncc3)ccc2S(=O)(=O)N([C@@H](C)CO)C[C@@H]1C
7[16.7 µM] | 13 | C[C@@H]1CCCCO[C@@H](CN(C)C(=O)C2CCCCC2)[C@H](C)CN([C@@H](C)CO)C(=O)c2cc(NC(=O)Nc3ccccc3)ccc2O1
10[16.7 µM] | 5 | C[C@@H]1CN([C@H](C)CO)C(=O)c2cc(C3=CCCCC3)cnc2O[C@H]1CN(C)Cc1ccccc1
-8[16.7 µM] | -5 | O=C(C[C@H]1C[C@H]2c3cc(NS(=O)(=O)c4ccc(F)cc4)ccc3O[C@H]2[C@@H](CO)O1)NCCc1ccccc1
-26[16.7 µM] | -27 | C[C@@H]1CN([C@H](C)CO)C(=O)c2cc(NC(=O)Nc3cccc4ccccc34)ccc2O[C@@H](C)CCCCO[C@@H]1CN(C)C(=O)C1CCCCC1
0[16.7 µM] | -9 | O=C(Cc1ccccn1)N[C@@H]1C=C[C@H](CC(=O)N2CCCCC2)O[C@@H]1CO
-7[16.7 µM] | -3 | N#C[C@@H]1N[C@@H](CO)[C@@H]1c1ccc(-c2ccccc2F)cc1
-25[16.7 µM] | 5 | O=C(C[C@H]1CC[C@@H]2[C@H](COC[C@H](O)CN2C(=O)c2cc(Cl)cc(Cl)c2)O1)N1CCc2ccccc2C1
-1[16.7 µM] | -3 | O=C(C[C@H]1CC[C@@H]2[C@H](COC[C@H](O)CN2Cc2ccc(Cl)cc2)O1)NCCc1ccccc1

HIV Env fusion | Yeast UUG start | SMILES
8[16.7 µM] | 11 | N#C[C@@H]1[C@H](c2ccc(C3=CCCC3)cc2)[C@H](CO)N1C(=O)Cc1ccncc1
-3[16.7 µM] | -18 | O=C(N[C@@H]1CC[C@@H](CCNC(=O)C2CCOCC2)O[C@@H]1CO)c1ccccn1
-6[16.7 µM] | 4 | C[C@H]1CCCCO[C@@H](CN(C)Cc2ccc(C(=O)O)cc2)[C@@H](C)CN([C@@H](C)CO)C(=O)c2cc(NC(=O)CCC(F)(F)F)ccc2O1
30[16.7 µM] | 18 | CN(C)C(=O)C[C@H]1C[C@H]2c3cc(NS(=O)(=O)c4ccc(F)cc4)ccc3O[C@H]2[C@H](CO)O1
9[16.7 µM] | -9 | COc1cccc(NC(=O)N[C@H]2CC[C@@H](CC(=O)Nc3ccccc3)O[C@@H]2CO)c1
-8[16.7 µM] | 20 | COc1ccc(CN(C)C[C@@H]2OCCCC[C@@H](C)Oc3ccc(NS(=O)(=O)c4cccs4)cc3C(=O)N([C@@H](C)CO)C[C@H]2C)cc1
26[16.7 µM] | 12 | CC(=O)N(C)C[C@@H]1Oc2cc(/C=C/c3ccccc3)ccc2S(=O)(=O)N([C@H](C)CO)C[C@H]1C
4[16.7 µM] | 59 | C[C@H](CO)N1C[C@H](C)[C@@H](CN(C)C(=O)c2cnccn2)Oc2ncc(C#CCC3CCCC3)cc2C1=O
-29[16.7 µM] | 6 | C[C@@H]1CN([C@H](C)CO)C(=O)c2cc(C#C[C@@H](C)O)cnc2O[C@@H]1CN(C)C(=O)Nc1ccc(F)cc1
3[16.7 µM] | -3 | C[C@@H]1CCCCO[C@@H](CN(C)S(=O)(=O)c2ccc(Cl)cc2)[C@@H](C)CN([C@H](C)CO)C(=O)c2cc(NC(=O)Cc3ccccc3)ccc2O1
6[16.7 µM] | 26 | C[C@H](CO)N1C[C@H](C)[C@H](CN(C)S(=O)(=O)c2ccccc2)Oc2ccc(NS(=O)(=O)c3ccc(F)cc3)cc2C1=O
9[16.7 µM] | 21 | O=C(C[C@@H]1C[C@H]2c3cc(NC(=O)c4cccnc4)ccc3O[C@H]2[C@@H](CO)O1)NCC1CC1

Complete entries, quoted from the list.
Shown for C[C@H](CO)N1C[C@H](C)[C@@H](CN(C)C(=O)c2cnccn2)Oc2ncc(C#CCC3CCCC3)cc2C1=O : HIV Env fusion: 4[16.7 µM]; Yeast UUG start: 59
Shown for C[C@@H]1CN([C@H](C)CO)C(=O)c2cc(C#C[C@@H](C)O)cnc2O[C@@H]1CN(C)C(=O)Nc1ccc(F)cc1 : HIV Env fusion: -29[16.7 µM]; Yeast UUG start: 6

Next section.
HIV Env fusion | Yeast UUG start | SMILES
39 | 10 | Cc1noc(C)c1S(=O)(=O)N(C)C[C@@H]1OCc2cnnn2CCCC(=O)N([C@@H](C)CO)C[C@@H]1C
9[16.7 µM] | 1 | CCC(=O)N(C)C[C@H]1Oc2ncc(C#Cc3ccccc3)cc2C(=O)N([C@H](C)CO)C[C@H]1C
-7[16.7 µM] | 5 | C/C=C/c1cnc2c(c1)C(=O)N([C@H](C)CO)C[C@H](C)[C@@H](CN(C)Cc1ccc3c(c1)OCO3)O2
-14[16.7 µM] | -19 | Cc1ccc(S(=O)(=O)N[C@H]2CC[C@H](CCn3cc(C4(O)CCCC4)nn3)O[C@H]2CO)cc1
46[16.7 µM] | 2 | C[C@H]1CCCCO[C@@H](CN(C)S(=O)(=O)c2ccc(Cl)cc2)[C@@H](C)CN([C@@H](C)CO)C(=O)c2cc(NC(=O)CCC(F)(F)F)ccc2O1
6[16.7 µM] | -3 | Cc1ccc(S(=O)(=O)N(C)C[C@@H]2Oc3ncc(-c4cccc(F)c4)cc3C(=O)N([C@H](C)CO)C[C@@H]2C)cc1
-21[16.7 µM] | -16 | COc1ccc(NC(=O)N(C)C[C@@H]2Oc3ccc(NS(=O)(=O)c4ccccc4)cc3C(=O)N([C@@H](C)CO)C[C@H]2C)cc1
-3[16.7 µM] | 19 | COc1ccc(-c2cnc3c(c2)C(=O)N([C@@H](C)CO)C[C@H](C)[C@H](CN(C)C(=O)C2CCOCC2)O3)cc1
5[16.7 µM] | 3 | COc1ccc(NC(=O)N(C)C[C@@H]2Oc3ccc(NS(=O)(=O)c4c(C)noc4C)cc3CC(=O)N([C@H](C)CO)C[C@H]2C)cc1
-38[16.7 µM] | 16 | C[C@@H]1CN([C@@H](C)CO)C(=O)c2cc(NS(=O)(=O)c3ccc(Cl)cc3)ccc2O[C@@H](C)CCCCO[C@@H]1CN(C)C(=O)CCCN(C)C
2[16.7 µM] | -2 | CC(=O)N[C@@H]1CC[C@@H](CCNC(=O)Nc2ccc(C(F)(F)F)cc2)O[C@H]1CO
3[16.7 µM] | 6 | C[C@@H]1CN([C@H](C)CO)C(=O)Cc2cc(NC(=O)C3CC3)ccc2O[C@@H]1CN(C)C(=O)Nc1cccc2ccccc12

HIV Env fusion | Yeast UUG start | SMILES
-24[16.7 µM] | -4 | C[C@@H]1CN([C@@H](C)CO)C(=O)c2cc(C3=CCCCC3)cnc2O[C@@H]1CN(C)C(=O)c1ccccn1
-1[16.7 µM] | -7 | CNC[C@H]1Oc2cc(-c3ccncc3)ccc2S(=O)(=O)N([C@@H](C)CO)C[C@H]1C
-3[16.7 µM] | 8 | COc1ccc(NC(=O)N(C)C[C@@H]2OCCCC[C@@H](C)Oc3ccc(NC(=O)c4ccncc4)cc3C(=O)N([C@@H](C)CO)C[C@H]2C)cc1
-10[16.7 µM] | -5 | O=C(C[C@H]1C=C[C@@H](NC(=O)Nc2cc(F)ccc2F)[C@H](CO)O1)Nc1ccccc1
-4[16.7 µM] | -1 | C/C=C/c1ccc2c(c1)O[C@@H](CN(C)C(=O)Nc1ccc(OC)cc1)[C@@H](C)CN([C@H](C)CO)S2(=O)=O
5[16.7 µM] | -6 | CN1C(=O)c2cc(NC(=O)c3cccc(F)c3)ccc2OC[C@@H]2O[C@H](CC(=O)O)CC[C@H]21
2[16.7 µM] | -1 | O=C(N[C@@H]1CC[C@H](CCn2cc(C3(O)CCCC3)nn2)O[C@@H]1CO)C1CCOCC1
15[16.7 µM] | 1 | CCCN(C)C[C@H]1Oc2ncc(C#CCN(C)C)cc2C(=O)N([C@H](C)CO)C[C@@H]1C
25[16.7 µM] | 10 | COc1ccc(S(=O)(=O)N(C)C[C@H]2Oc3ccc(NC(=O)C4CC4)cc3CC(=O)N([C@H](C)CO)C[C@H]2C)cc1
8[16.7 µM] | -9 | COc1ccc(CN2C[C@@H](O)COC[C@@H]3O[C@@H](CC(=O)NCc4ccccc4Cl)CC[C@H]32)cc1
-4[16.7 µM] | 0 | C[C@@H]1CN([C@@H](C)CO)C(=O)c2cc(NS(=O)(=O)c3cccs3)ccc2O[C@H]1CN(C)Cc1ccc(Cl)c(Cl)c1
-1[16.7 µM] | -1 | O=C(C[C@@H]1C=C[C@@H](NC(=O)Cc2cccnc2)[C@@H](CO)O1)NCc1ccc2c(c1)OCO2

Arranged by count of non-hydrogen atoms (lowest first): some entries from above
HIV Env fusion | Yeast UUG start | SMILES
26[16.7 µM] | 12 | CC(=O)N(C)C[C@@H]1Oc2cc(/C=C/c3ccccc3)ccc2S(=O)(=O)N([C@H](C)CO)C[C@H]1C
0[16.7 µM] | 6 | CC(C)NC(=O)N(C)C[C@H]1Oc2cc(-c3ccncc3)ccc2S(=O)(=O)N([C@@H](C)CO)C[C@@H]1C
-29[16.7 µM] | 6 | C[C@@H]1CN([C@H](C)CO)C(=O)c2cc(C#C[C@@H](C)O)cnc2O[C@@H]1CN(C)C(=O)Nc1ccc(F)cc1
-8[16.7 µM] | -5 | O=C(C[C@H]1C[C@H]2c3cc(NS(=O)(=O)c4ccc(F)cc4)ccc3O[C@H]2[C@@H](CO)O1)NCCc1ccccc1
3[16.7 µM] | -3 | C[C@@H]1CCCCO[C@@H](CN(C)S(=O)(=O)c2ccc(Cl)cc2)[C@@H](C)CN([C@H](C)CO)C(=O)c2cc(NC(=O)Cc3ccccc3)ccc2O1

Going on with the list.
HIV Env fusion | Yeast UUG start | SMILES
11[16.7 µM] | 0 | COc1ccc(CN(C)C[C@H]2OCCCC[C@@H](C)Oc3ccc(NS(=O)(=O)c4cccs4)cc3C(=O)N([C@H](C)CO)C[C@@H]2C)cc1
-3[16.7 µM] | 7 | COc1ccc(CN(C)C[C@H]2Oc3ccc(NC(=O)Nc4ccc(C(F)(F)F)cc4)cc3C(=O)N([C@H](C)CO)C[C@@H]2C)cc1
-13[16.7 µM] | -11 | CC(C)NC(=O)N(C)C[C@@H]1OCCCC[C@@H](C)Oc2ccc(NS(=O)(=O)c3ccccc3)cc2C(=O)N([C@@H](C)CO)C[C@@H]1C
13[16.7 µM] | -10 | O=C(O)C[C@@H]1C[C@H]2c3cc(NC(=O)Nc4ccccc4)ccc3O[C@H]2[C@@H](CO)O1
7[16.7 µM] | -3 | COc1ccc(NC(=O)Nc2ccc3c(c2)C(=O)N([C@@H](C)CO)C[C@H](C)[C@@H](CN(C)S(=O)(=O)c2ccc(C)cc2)OCCCC[C@H](C)O3)cc1
18[16.7 µM] | -5 | Cc1ccccc1-c1cnc2c(c1)C(=O)N([C@@H](C)CO)C[C@H](C)[C@H](CN(C)Cc1ccccc1F)O2
4[16.7 µM] | 4 | CN(C)CC(=O)N[C@H]1CC[C@@H](CCn2cc(C3CCCC3)nn2)O[C@@H]1CO
-1[16.7 µM] | 8 | C[C@@H]1CCCCO[C@H](CN(C)S(=O)(=O)c2ccccc2)[C@H](C)CN([C@@H](C)CO)C(=O)c2cc(NS(=O)(=O)c3cccs3)ccc2O1
5[16.7 µM] | 0 | Cc1ccc(S(=O)(=O)Nc2ccc3c(c2)C(=O)N([C@@H](C)CO)C[C@H](C)[C@@H](CN(C)C)OCCCC[C@H](C)O3)cc1
4[16.7 µM] | 6 | C[C@H]1CN([C@@H](C)CO)C(=O)c2cc(C3=CCCC3)cnc2O[C@@H]1CN(C)Cc1ccccc1
26[16.7 µM] | -15 | C[C@@H]1CCCCO[C@@H](CN(C)S(=O)(=O)c2cn(C)cn2)[C@@H](C)CN([C@H](C)CO)C(=O)c2cc(NC(=O)c3ccncc3)ccc2O1
-4[16.7 µM] | 0 | C[C@H](CO)N1C[C@H](C)[C@H](CN(C)C)OCCCC[C@H](C)Oc2ccc(NC(=O)CCC(F)(F)F)cc2C1=O

HIV Env fusion | Yeast UUG start | SMILES
-3[16.7 µM] | -8 | CNC[C@H]1Oc2ccc(NC(=O)c3ccncc3)cc2CC(=O)N([C@@H](C)CO)C[C@H]1C
-2[16.7 µM] | 5 | O=C(Nc1ccc(F)cc1)N[C@H]1CC[C@H](CCn2cc(-c3ccccc3F)nn2)O[C@H]1CO
2[16.7 µM] | -1 | O=C(NCC[C@@H]1CC[C@@H](NC(=O)C2CCC2)[C@H](CO)O1)c1ccc(F)cc1
7[16.7 µM] | 19 | O=C(C[C@H]1C[C@@H]2c3cc(NC(=O)CC4CC4)ccc3O[C@@H]2[C@@H](CO)O1)NCCc1ccccc1
-21[16.7 µM] | -8 | COc1ccccc1-c1ccc2c(c1)O[C@@H](CN(C)C(=O)Nc1cccc(F)c1)[C@@H](C)CN([C@H](C)CO)S2(=O)=O
16[16.7 µM] | -11 | COc1ccc(CNC(=O)C[C@@H]2C=C[C@@H](NC(=O)CN(C)C)[C@@H](CO)O2)cc1
18[16.7 µM] | -1 | CNC(=O)C[C@H]1CC[C@@H]2[C@H](COc3ccc(NS(=O)(=O)c4ccc(F)cc4)cc3C(=O)N2C)O1
-10[16.7 µM] | -1 | O=C(C[C@H]1C=C[C@H](NC(=O)Cc2ccccn2)[C@@H](CO)O1)NCCc1ccccc1
34[16.7 µM] | 22 | COCC#Cc1cnc2c(c1)C(=O)N([C@@H](C)CO)C[C@@H](C)[C@H](CN(C)C(=O)Nc1ccccc1OC)O2
-12[16.7 µM] | 12 | CC(C)NC(=O)N(C)C[C@@H]1Oc2cc(C#CC3CC3)ccc2S(=O)(=O)N([C@H](C)CO)C[C@@H]1C
-18[16.7 µM] | 2 | C[C@H](CO)N1C[C@H](C)[C@@H](CN(C)Cc2ccncc2)Oc2ccc(NC(=O)NC3CCCCC3)cc2CC1=O

The list is partial. The share of hits here may be higher or lower than overall.
